# gsp ag – gsp mutant agonism | 340,000 tested, 0.13% active | gsp mutant cells, cAMP HTRF, 30 min; control for the full effect not named in the record | AID 624287 | Potency, µM (titrated, usually from 76.9 µM), for the others: at the highest dose activation (cAMP increase), actives largely listed as activators; active = well fitted activation curve with a large enough effect; inconclusive = small, poorly fitted or top-dose-only effect, or another doubt; inactive = no such curve, though single readings can be large or run the other way; cell line not stated here;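 further: phosphodiesterase inhibitor Ro 20-1724 added with compounds to block cAMP breakdown; potency means the concentration at half of the fitted maximal effect; nearly all actives have a fitted effect of over 60% in size; about a fifth of the inactives were tested at one dose only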
#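 Cells in DMEM/10% FBS with G418 were pretreated with compounds in DMSO plus […] (300 uM stock) for 30 min at 37C. cAMP was measured by HTRF (cAMP-d2 plus anti-cAMP antibody-K) after 30 min at room temperature.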
# ClpP mod – qHTS Assay for Activators of ClpP; ATP-dependent Clp protease proteolytic subunit (Bacillus subtilis (strain 168)), P80244; purified B. subtilis ClpP, FRET peptide cleavage, 20 min; Potency, µM (series often up to 57.5 µM), without a hit: at the highest dose activity change, negative = active; 340,000 tested, 1.9% active; AID 651965, 2013; active = well fitted falling curve with a large enough effect; inconclusive = small, poorly fitted or top-dose-only effect; inactive = no such curve, though single readings can be large or run the other way; further: potency means the concentration at half of the fitted maximal effect; the source files actives as falling curves though it sought activators and does not explain the sign; nearly all actives have a fitted effect of over 65% in size; many hits overshoot -100%
# Target sequence (P80244 whole entry, looked up): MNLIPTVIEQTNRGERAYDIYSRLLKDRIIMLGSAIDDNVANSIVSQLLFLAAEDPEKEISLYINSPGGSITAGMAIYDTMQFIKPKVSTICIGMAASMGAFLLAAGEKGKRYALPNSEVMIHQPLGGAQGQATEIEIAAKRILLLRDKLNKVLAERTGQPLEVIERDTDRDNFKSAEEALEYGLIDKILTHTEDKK
#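 Purified B. subtilis ClpP, 10 microg/mL final in Tris/HCl pH8 with KCl, BSA, glycerol and Tween-20, cleaved an Abz/nitrotyrosine-quenched decapeptide. Fluorescence (ex 320, em 430) was read at 0 and 20 min at room temperature. Delta was normalized to 5.8 microM ADEP and DMSO/no-enzyme controls.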
# gsp antagonist – antagonists of gsp mutant (McCune-Albright syndrome). 340,000 tested, 0.4% active. gsp-mutant cells, cAMP HTRF, 30 min; control for the full effect not named in the record. Potency, µM (highest dose often 76.9 µM), inactives show at the highest dose activity change, negative = inhibition, usual class: inhibitors; active = falling curve of any shape with a large fitted effect; inconclusive = falling curve, mostly with a smaller effect; inactive = flat or rising curve; cell line not stated here;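 further: intracellular cAMP measured with PDE inhibitor Ro 20-1724 present during compound exposure; potency means the concentration at half of the fitted maximal effect; on the % scale 0 is the no-effect control and ±100 the full control effect; nearly all actives have a fitted effect of over 65% in size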
#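 Cells in G418 medium, seeded 16-24 h, 37C; buffer exchange to DPBS + 1 mM CaCl2, 0.5 mM MgCl2, 0.05% BSA; cpds in DMSO + […] (300 uM stock), 30 min 37C; HTRF cAMP detection.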
# Menin-MLL FL inh – menin-MLL binding inhibition, fluorescein peptide; AID 1766; Fluorescence polarization, fluorescein-MLL peptide displacement from menin; FP activity change, % at 61.4 µM; 290,000 tested, under 10 active; inconclusive = falling polarisation curve, or a change in total fluorescence; inactive = total fluorescence flat and polarisation flat or rising; no compound was filed as active; the % refers to the polarisation; negative = inhibition;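 further: % of control where 0% means no effect; inhibitors lower the polarisation; unlabelled MLL peptide was the positive control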
# TRPV1 PAM – potentiators of human vanilloid receptor 1 (TRPV1); TRPV1-expressing cells, Fluo-8 calcium influx, capsaicin EC20 potentiation; host cell line not named in the record; control for the full effect not named in the record; potentiation, % at 8.33 µM; 320,000 tested, 0.02% active; AID 540277; active means potentiation above 80%; inconclusive means 30% to 80%; inactive means below 30%; further: 0% is about no effect
#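 TRPV1-expressing cells were cultured overnight at 35.5C and loaded with Fluo-8 calcium dye for 40 to 90 min at room temperature. After a 10 s baseline, compound was added and calcium influx was read kinetically for 3 min (ex 480/em 520 nm).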
# TRPML1 inh – inhibitors of human TRPML1 channel; 390,000 tested, 0.02% active; activity change, negative = inhibition, % (concentration not given with the values); TRPML1-inducible cells, Ca2+ dye fluorescence, FDSS; stronger effect = lower value; inhibition of EC80 agonist-evoked calcium signal; Q9GZU1; in the data active means activity change below about -50%; inconclusive means about -30% to -50%; inactive means above about -30%;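 further: stimulus is agonist 54-4 at its EC80 concentration; on the % scale 0 is the no-effect control and ±100 the full control effect; compound concentration not given in the record; the text of the record puts the active cut at -80%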
# Target sequence (Q9GZU1 whole entry, looked up): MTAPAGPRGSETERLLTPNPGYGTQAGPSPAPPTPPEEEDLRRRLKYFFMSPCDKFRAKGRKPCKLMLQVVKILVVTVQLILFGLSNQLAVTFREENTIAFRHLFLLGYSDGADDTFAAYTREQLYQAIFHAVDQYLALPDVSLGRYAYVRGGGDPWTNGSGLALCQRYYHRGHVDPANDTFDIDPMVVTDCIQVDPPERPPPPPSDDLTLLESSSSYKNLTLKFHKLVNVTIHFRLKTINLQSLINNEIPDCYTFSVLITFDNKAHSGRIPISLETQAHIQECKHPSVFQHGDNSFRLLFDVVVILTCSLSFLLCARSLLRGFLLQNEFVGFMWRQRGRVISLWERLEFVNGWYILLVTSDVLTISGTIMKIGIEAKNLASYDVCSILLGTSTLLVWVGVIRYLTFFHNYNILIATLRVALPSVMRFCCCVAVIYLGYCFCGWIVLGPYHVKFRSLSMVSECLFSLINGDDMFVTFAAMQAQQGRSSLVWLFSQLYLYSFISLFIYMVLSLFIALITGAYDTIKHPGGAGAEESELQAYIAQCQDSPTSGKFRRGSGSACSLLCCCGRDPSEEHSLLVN
#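 TRPML1-DL cells, Tet-induced overnight (~16 h, 37 °C) at 1,500 cells/well, were loaded with Ca8 no-wash dye plus quencher for 45-90 min at room temperature. Compounds were pinned during FDSS kinetic reading; agonist 54-4 at EC80 (4 uM final) then added.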
# Sfp inh – Sfp phosphopantetheinyl transferase inhibition | 310,000 tested, 3.5% active | Potency, µM, inactives show max response, negative = inhibition, actives largely listed as inhibitors | Q9F4F7 | Biochemical Sfp PPTase activity, qHTS; active means well fitted inhibition curve with a large enough effect; inconclusive means small, poorly fitted or top-dose-only effect, or another doubt; inactive means no such curve, though single readings can be large or run the other way;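 further: the enzyme is Sfp with the accession as filed and its product quenches rhodamine fluorescence; potency means the concentration at half of the fitted maximal effect; 0% = enzyme reaction without inhibitor and -100% = no enzyme wells; top concentration of the series not given in the record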
#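 Step 1, compound plus 15 nM Sfp-PPTase, 15 min, room temperature. Step 2, add rhodamine-CoA (5 uM) and BHQ-2-YbbR (12.5 uM). Step 3, read 525/598 nm fluorescence at 0 and 30 min.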
# * marks the source's active call; other numbers are inactive results; ? = inconclusive; nt = not tested or not shown; [ ] = another dose, or the depositor's remark.
SMILES,gsp ag,ClpP mod,gsp antagonist,Menin-MLL FL inh,TRPV1 PAM,TRPML1 inh,Sfp inh
CC(C)(C)NC(=O)CC1C[C@H](C(=O)N2CCOCC2)[C@@]2(CCC3CCCC3)c3[nH]c4ccccc4c3CCN2C1=O (some centres not stated),nt,-4.1%,-5%,nt,nt,-9,nt
CCc1cccc(NC(=O)CCNC(=O)Cn2ccc3ccccc3c2=O)c1,16%,nt,1%,0.5,19,17,8%
COc1ccccc1OCCn1c(C(C)O)nc2ccccc21 (configuration not stated),-11%,1.0%,-2%,-0.2,-4,-2,11%
O=C(c1cccs1)N1CCN(c2nc3ccccc3s2)CC1,-25%,-3.5%,-1%,-0.7,-8,-12,-8%
COC(=O)c1ccc(NC(=O)c2cc(Cl)ccc2OC)cc1,8%,-1.0%,3%,-0.2,-2,28,3%
CN1CCCN(C(=O)c2cc(-c3ccc(Cl)c(Cl)c3Cl)nc3ccccc23)CC1,13%,-3.3%,-7%,-2.8,9,-11,-14%
O=C1/C(=C/c2cccnc2)SC(=S)N1CC1CCCO1 (configuration not stated),21%[15.4 µM],nt,-10%,-6.3,-15,15,2%
Cc1ccc(NC(=S)NCc2ccc3[nH]c4c(c3c2)CCCC4)cc1,-375%[inhibitor],-6.9%,1%,1.8,18,-6,9%
COc1ccc(N(CC(=O)NC2CCCC2)C(=O)c2csnn2)cc1,28%,1.3%,11%,-2.0,3,-4,7%
CC1CCN(c2ccc3nnc(CCC(=O)Nc4ccc(F)c(F)c4)n3n2)CC1,-20%,-26%,5%,-1.7,-22,21,12%
CCOc1ccc(NC(=O)NCc2cccnc2)cc1,13%,0.6%,11%,5.1,6,9,6%
O=S1(=O)C=C(SCc2ccccc2)Nc2ccccc21,-4%,-0.7%,-6%,1.9,7,7,10%
CC(C)c1onc(C(=O)N2CCC(C(N)=O)CC2)c1[N+](=O)[O-],-11%,1.5%,13%,0.0,4,5,-1%
CCC[C@@H](O)c1cc2cc(OC)c(OC)cc2c(=O)o1,nt,?,3%,nt,-5,2,nt
CC(Cc1ccco1)NC(=O)c1ccc(C(F)(F)F)cc1 (configuration not stated),7%[15.4 µM],nt,6%,-0.1,24,-13,10%
CC1CCCN(c2ncnc3c2cnn3-c2ccccc2)C1 (configuration not stated),-20%,-0.5%,-12%,-0.5,-5,-9,89µM*
COc1ccc(NC(=O)Nc2c(C)noc2-c2ccccc2)cc1,-47%[inhibitor],1.3%,5%,-8.0,-2,-6,20%
COc1ccc(-n2ncc3c2CC(C)(C)CC3NC(=O)Cc2nonc2C)cc1 (configuration not stated),-11%,-2.3%,-14%,nt,-24,-16,12%
Cc1cc(NS(=O)(=O)c2ccc(Nc3nc(-c4ccc(O)cc4)cs3)cc2)no1,-32%[inhibitor],-11%,-18%,-4.6,?,4,-30%
CCC(=O)N1CCN(c2ccc(Cl)cc2NC(=S)NC(=O)c2ccco2)CC1,-14%,2.0%,-11%,nt,nt,42,nt
COc1ccc(C2SCC(=O)N2c2ccccc2)cc1 (configuration not stated),11%,-2.2%,6%,0.3,1,nt,10%
O=C(Cn1cnc2ccc(Cl)cc2c1=O)NC1CCS(=O)(=O)C1 (configuration not stated),23%[15.4 µM],nt,11%,nt,0,17,nt
O=C(Nc1ccc(NC(=O)C2CC2)cn1)c1ccccc1Cl,2%,0.9%,-1%,2.9,23,-20,-7%
Cc1sc(N/N=C/c2cccnc2)nc1-c1ccc(Cl)cc1,-26%,-5.3%,-16%,0.7,14,-12,-25%
CCN1CCN(C2=CC3=CC(=C(C#N)C#N)CCC3CC2)CC1 (configuration not stated),10%,2.2%,?,?,-21,-7,-10%

# Continuation.
SMILES,gsp ag,ClpP mod,gsp antagonist,Menin-MLL FL inh,TRPV1 PAM,TRPML1 inh,Sfp inh
Cc1nc(NC(=S)NC(=O)COc2ccccc2Cl)ccc1Br,21%,28µM*,6%,2.2,-5,11,1%
COc1cc([C@@H]2CC=C(C(=O)O)[C@H](c3ccc(F)cc3)N2S(=O)(=O)c2ccc(C)cc2)cc(OC)c1OC,-23%,-1.4%,-2%,nt,11,-12,nt
CN1CCN(S(=O)(=O)c2ccc(NC(=O)C(C)(C)C)cc2)CC1,-8%,1.9%,11%,7.6,-4,26,-11%
COc1cccc(NC(=O)Cn2nnc(-c3ccccc3N)n2)c1,-33%,1.4%,-6%,-0.5,1,1,12%
O=C(CN1CC[n+]2c(-c3cccs3)csc21)c1ccc(Br)cc1,-4%[15.4 µM],nt,4%,0.3,0,6,24%
O=C(N/N=C/c1cccs1)c1cc(-c2ccncc2)nc2ccccc12,?,-0.7%,7%,1.1,6,-3,9%
CCCC[C@H](CC(=O)c1ccccc1)[C@@H](OC(C)=O)C(=O)Oc1c(C(C)C)cccc1C(C)C,nt,0.0%,-13%,nt,-4,-14,nt
CCc1nnc(NC(=O)CCC(=O)N2CCN(c3cc(Cl)ccc3C)CC2)s1,29%,0.0%,-15%,nt,-3,2,-5%
COC(=O)c1sccc1NC(=O)CSc1nnnn1-c1ccccc1C,0%,0.5%,-1%,0.1,0,-3,-11%
O=C(NCCCN1CCOCC1)/C(=C/c1cccs1)NC(=O)c1ccccc1,4%[15.4 µM],nt,-27%,-0.3,-23,-10,15%
CCCS(=O)(=O)c1nc(S(=O)(=O)c2ccc(C)cc2)c(NCCCN2CCOCC2)s1,28%,-0.7%,9%,2.3,-3,2,8%
COC(=O)CCN(c1ccccc1)S(=O)(=O)c1cc(-c2cc(C)no2)ccc1C,26%,1.3%,-27%,0.7,-14,-16,11%
CCCCN(C(=O)c1cnc(C)cn1)c1c(N)n(CCC)c(=O)[nH]c1=O,-17%,-4.2%,11%,nt,2,9,nt
COC(=O)[C@@]12CCCCN1[C@H](c1ccc(-c3ccc(OC)cc3)c(OC)c1)[C@@H]1C(=O)N(C)C(=O)[C@@H]12,nt,-28%,-2%,nt,-14,10,nt
CCOc1ccccc1-n1c(SCC(=O)NC(C)CC)nnc1-c1ccoc1C (configuration not stated),-19%,-3.3%,-13%,-0.9,-5,7,8%
CC1=C(C(=O)O)N2C(=O)C(NC(=O)c3ccn(C)n3)C2SC1 (configuration not stated),?,-0.2%,5%,8.3,-4,1,22µM*
O=C(CCN1C(=O)c2ccccc2C1=O)NCc1cccc(Cl)c1,-10%,nt,3%,nt,-9,-11,13%
O=C(O)c1cccnc1SC1CC(=O)N(c2ccccc2)C1=O (configuration not stated),-30%,-0.8%,9%,2.7,-7,-5,15%
Cc1c(C=N)c(O)n(C)c(=O)c1C#N,7%[15.4 µM],-2.8%,1%,0.1,8,48,11%
Cc1ccc(N(CC(=O)NC2CCCC2)C(=O)c2nsc(Cl)c2Cl)cc1,?,nt,-5%,5.8,-14,32,7%
COc1ccc(CNC(=O)c2ccc(Br)cc2)cc1,nt,nt,nt,-1.4,-28,nt,19%
COc1ccc(-c2nnc(SCC(=O)Nc3cccc(Cl)c3)o2)cc1,-1%,-11%,3%,0.9,-4,21,-1%
N#CC1C(=O)NC(N2CCN(c3ccccc3)CC2)=NC12CCCCC2 (configuration not stated),-65%[inhibitor],-0.4%,1%,1.5,-11,2,3%
CCOC(=O)CNC(=O)Cn1cnc2c(nnn2-c2ccc(OC)cc2)c1=O,?,-3.4%,9%,7.4,-4,-9,9%
Cc1csc(SCCn2c(N3CCCC3)nc3c2c(=O)[nH]c(=O)n3C)n1,2%,3.3%,-4%,0.1,?,4,15%

# Other results follow.
SMILES,gsp ag,ClpP mod,gsp antagonist,Menin-MLL FL inh,TRPV1 PAM,TRPML1 inh,Sfp inh
Clc1nc(Nc2ccccc2)nc(Nc2ccccc2)n1,14%[15.4 µM],32µM*,6%,-4.9,5,-1,10%
Cc1cc(S(=O)(=O)NCC(C)C)ccc1OCC(=O)N1CCOCC1,-23%,7.8%,-7%,?,-2,-3,8%
CC(=O)OCC1=C(C(=O)O)N2C(=O)[C@@H](NC(=O)CSc3ccncc3)[C@H]2SC1,-7%[15.4 µM],nt,10%,-0.3,12,0,nt
CC(C)(C)n1nc(C2CC2)cc1NC(=O)Nc1ccc(Cl)cc1,36%,1.5%,-31%,-2.4,-18,-3,29%
Cc1nc2nc(-c3ccccc3)nn2c(C)c1Cl,8%,-18%,8%,nt,nt,-5,nt
CCn1cc(CN2CCCC(C(=O)Nc3cccc(-n4cccn4)c3)C2)c(C)n1 (configuration not stated),-40%[inhibitor],0.4%,13%,-1.3,22,-6,8%
O=C(Cn1cnc2ccccc21)N/N=C/c1cccs1,11%[15.4 µM],-0.3%,-4%,-0.7,10,6,-4%
COc1ccc([C@H]2C[C@@H](O)[C@H](n3cc(COC(=O)c4ccccc4)nn3)CN2Cc2cccs2)cc1,-2%,-3.9%,nt,nt,nt,0,nt
CCc1cc2c(=O)c(-c3ccc4c(c3)OCCO4)coc2cc1OC(=O)c1ccco1,3%,-4.8%,12%,-0.3,0,16,-20%
O=C(NCc1ccccc1)c1ccc(OC2CSC2)cc1,-3%,-0.3%,1%,1.3,-17,-6,-29%
COc1ccc(-c2nc(CS(=O)CC(=O)N3CCCC3)c(C)o2)cc1 (configuration not stated),-64%[inhibitor],-14%,7%,4.1,?,8,-23%
COc1cc(CN2CCNC(=O)C2CC(=O)NCCCC2CCCC2)cc(OC)c1 (configuration not stated),-1%,-4.0%,8%,nt,-7,8,4%
O=C(NNC(=S)NC1CCCCC1)c1ccc2c(c1)OCO2,8%,19%,4%,0.1,0,-13,11%
COCCNC(=O)[C@H](CSCc1ccccc1)N1Cc2ccccc2C1=O,-18%,-0.3%,0%,1.9,?,8,7%
CCOC(=O)CSC1=Nc2ccccc2C2=NC(CC(=O)NCc3ccccc3)C(=O)N12 (configuration not stated),?,?,-8%,4.3,-2,0,-10%
CCOC(=O)C1=C(CN2CCN(CCC#N)CC2)NC(=O)NC1c1ccc2c(c1)OCO2 (configuration not stated),18%[15.4 µM],nt,-12%,3.9,-3,-3,9%
O=C(COc1cccnc1[N+](=O)[O-])Nc1ncc(Cl)cc1Cl,-30%[inhibitor],-4.9%,-10%,nt,9,-2,nt

# From PubChem BioAssay
